# Compound activity as filed in PubChem.
# YopH inh: blocks Yersinia enterocolitica YopH tyrosine phosphatase; fluorescence Ex485/Em525; inhibition, %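 (about 10 µM by stock and volumes)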; 140,000 compounds, 0.16% hits;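 active = inhibition of 50% or more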;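 also: controls were vehicle for no effect and minimum signal wells for full effect; inactives centre near -20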
# RecA splice inh: blocks M. tuberculosis RecA intein splicing; cell-free RecA intein splicing, fluorescence; inhibition, %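 (about 9 µM by stock and volumes)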; 290,000 compounds, 0.75% hits; AID 2221; in the data active = inhibition above about 30%; inconclusive = no clear call, values can overlap the other calls;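 also: 0% = vehicle wells and 100% = reference inhibitor control wells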
# Target sequence (P9WHJ3 whole entry, looked up, canonical isoform): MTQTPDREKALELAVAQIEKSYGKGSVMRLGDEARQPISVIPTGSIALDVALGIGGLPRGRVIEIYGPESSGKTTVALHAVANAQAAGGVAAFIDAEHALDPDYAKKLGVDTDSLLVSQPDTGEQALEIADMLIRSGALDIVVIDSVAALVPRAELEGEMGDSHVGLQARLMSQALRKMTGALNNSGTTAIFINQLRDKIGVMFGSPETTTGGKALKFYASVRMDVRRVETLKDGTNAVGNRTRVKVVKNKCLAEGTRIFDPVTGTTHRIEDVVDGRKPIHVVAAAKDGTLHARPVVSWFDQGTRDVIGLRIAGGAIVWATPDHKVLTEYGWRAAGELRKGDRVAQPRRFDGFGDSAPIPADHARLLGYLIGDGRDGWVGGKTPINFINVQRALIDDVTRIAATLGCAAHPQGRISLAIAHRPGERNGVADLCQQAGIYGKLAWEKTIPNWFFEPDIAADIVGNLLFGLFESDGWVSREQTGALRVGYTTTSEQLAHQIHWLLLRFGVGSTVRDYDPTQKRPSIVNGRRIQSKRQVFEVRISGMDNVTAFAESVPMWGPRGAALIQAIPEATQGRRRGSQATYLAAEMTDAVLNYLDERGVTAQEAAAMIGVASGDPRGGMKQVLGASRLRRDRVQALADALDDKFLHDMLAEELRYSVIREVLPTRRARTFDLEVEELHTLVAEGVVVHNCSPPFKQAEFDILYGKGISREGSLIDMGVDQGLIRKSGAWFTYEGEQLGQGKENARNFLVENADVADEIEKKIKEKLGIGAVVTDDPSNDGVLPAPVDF
# Mtb betalactam: beta-lactam sensitization of Mtb H37Rv; M. tuberculosis H37Rv growth with meropenem, percent inhibition; hits of this screen are not shown here; 330,000 compounds, 0.27% hits; inhibition, % at 25 µM;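 active = about 74% or more and at least 40 points above the plate without the antibiotic, then above 30% in a dose series; inconclusive = first-round hits that could not be retested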;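 also: growth measured after seven days incubation then overnight dye step; 0% = bacteria only wells and 100% = bacteria with antibiotic; twin plates without the antibiotic show which effects depend on it; some results filed as inactive read as strong as hits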
# Mtb H37Rv: M. tuberculosis H37Rv growth inhibitors, H37Rv strain (AID 1626). inhibition, % at 10 µM, or IC50 in µM where a hit was titrated. 220,000 compounds, 0.95% hits. M. tuberculosis H37Rv growth inhibition; higher % means a stronger effect;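 active = confirmed in a dose series; inconclusive = inhibition above 80% but not taken into the dose series; inactive = below 80% or under 30% at every dose of the series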;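 also: bacteria incubated seven days before Alamar blue readout; 0% = bacteria only wells and 100% = bacteria with antibiotic wells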
# Arbovirus inh: antivirals against arbovirus infection; arbovirus infection cell-based antiviral screen; 200,000 compounds, 0.37% hits; inhibition, % at 10 µM;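 active = inhibition from about 30%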;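 also: bluetongue infection of BSR cells; cell survival read as ATP light after 72 h; 0% = infected wells without compound and 100% = uninfected wells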
# Arbovirus inh repeat: also measured in Arbovirus inh; calls as there; inhibition, %; measured here: 10K subset replicate screen; many hits read low in the repeat;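 first of two repeat runs on a subset; 0% = infected and 100% = uninfected wells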
# * = called active by the depositor; ? = inconclusive; / = no result given. The list is partial. The share of hits here may be higher or lower than overall.
SMILES,YopH inh,RecA splice inh,Mtb betalactam,Mtb H37Rv,Arbovirus inh,others
COC(=O)c1cn(C(=O)c2cc(Br)ccc2Cl)c2ccccc12,/,1.1,2,/,/,
COCc1ccc(CN2CCC(C(=O)Nc3cccc(-c4cscn4)c3)CC2)o1,/,-0.5,-2,/,/,
COc1ccc(-c2csc3ncnc(N4CCN(S(=O)(=O)c5ccc(C)c(C)c5)CC4)c23)cc1,/,1.1,-8,/,/,
COc1ccc(-c2nnc(SCC(=O)N3CCCCC3)o2)c(OC)c1,-38,1.2,-4,4%,-1,
Cc1occc1C(=O)N(C)Cc1nc(-c2ccccc2)no1,/,11,2,/,/,
COc1ccc(-c2cc(N)n(CCC#N)n2)c(OC)c1,-31,-0.8,-3,-8%,1,
CCOC(=O)C1=C(C)N(CCCC(=O)O)C(=O)NC1c1ccccc1OC(=O)c1cccs1 (stereo not given),/,-0.4,-4,-10%,/,
COc1ccc(NC(=O)C/C(C)=N/NC(=O)c2cnccn2)c(OC)c1,/,-4.3,12,/,/,
Cc1ccc(NC(=O)CCc2nnc3ccc(N4CCC(C)CC4)nn23)nc1,/,-4.4,-1,/,/,
CCOc1ccc(S(=O)(=O)Nc2ccc(C(=O)N3CCCC3)cc2)cc1,/,-1.2,3,/,/,
Cc1ccc(C(C(=O)NCc2ccccc2)N(Cc2ccco2)C(=O)c2snc(C(N)=O)c2N)o1 (stereo not given),/,1.1,3,/,/,
CCCCn1c(N)c(N(CCOC)C(=O)c2ccc(C)o2)c(=O)[nH]c1=O,/,-1.8,-6,/,/,
O=C(CCN1C(=O)c2ccccc2C1=O)NCc1ccccc1,/,6.0,2,/,/,
Cc1cc(C)n2nc(N)c(N=Nc3ccccc3)c2n1,/,3.0,98,?,/,
CCOc1ccc(Cl)cc1CSc1n[nH]c(C)n1,/,-3.6,-3,7%,7,
Cc1onc(-c2ccccc2)c1C(=O)N/N=C/c1cccs1,/,-0.1,3,17%,/,
O=C1NCCN1CCN1C(=O)c2ccccc2NC1c1ccccc1 (stereo not given),/,-5.3,-1,0%,/,
O=C1CC(SCc2nc3ccccc3[nH]2)C(=O)N1c1ccc(F)cc1 (stereo not given),6,1.2,-14,1%,8,
CCN(CC)CCn1c(=N)n(CC(=O)c2ccc(C)cc2)c2ccccc21,/,1.1,8,/,/,
CC(C)n1nnnc1SCC(=O)NCc1cccs1,-56,-1.7,-7,-24%,5,
COc1ccc(NC(=O)c2cccc(C#N)c2)cc1NS(=O)(=O)c1ccc(F)cc1,-22,-0.5,2,2%,-3,
CCn1c(SCC(=O)NC2CC2)nnc1-c1ccc(C)cc1,/,0.0,?,/,/,
CCOC(=O)C1CCN(C(=O)COc2ccc(Cl)cc2Cl)CC1,9,-1.5,6,1%,1,
O=C(/C=C/c1ccc2c(c1)OCO2)c1cccnc1,/,0.6,-1,/,/,
c1ccc2c3c([nH]c2c1)-c1[nH]ncc1CC3,-26,-11,49,5%,3,
# (list continues)
SMILES,YopH inh,RecA splice inh,Mtb betalactam,Mtb H37Rv,Arbovirus inh,others
CCN(CC)CCN(Cc1cc2cc3c(cc2[nH]c1=O)OCO3)C(=S)NCCCOC,/,-2.7,-6,/,/,
O=C(Cn1nnc2c(cnn2-c2ccc(F)cc2)c1=O)Nc1ccccc1C(F)(F)F,/,-3.6,2,-1%,-10,
Cc1oc(S(=O)(=O)N2CCCCC2)cc1NC(=O)Nc1ccc(Cl)cc1,/,1.1,-12,-19%,/,
CC12CCC(C(=O)N(CSC(=S)N/N=C\c3ccccc3)C1=O)C2(C)C (stereo not given),-22,-2.9,0,/,-3,
CC1(C)c2[nH]c3ccccc3c2C[C@H]2C(=O)N(Cc3ccccc3)C(=O)N21,/,4.1,88,5%,/,
CSCC[C@H](NC(=O)N1CCn2c1nc1ccccc12)C(=O)NCC1CCCO1 (stereo not given in full),/,-4.5,-7,/,/,
Cc1nccc2oc(=O)c(NC(=O)c3ccc(Cl)cc3)cc12,/,-0.8,5,2%,6,
CC1CCCN(C(=O)c2ccc(OC3CCN(CCc4ccccc4)CC3)cc2)C1 (stereo not given),/,1.0,7,/,/,
COc1ccccc1N(CC(=O)Nc1ccc(S(=O)(=O)N2CCOCC2)cc1)S(C)(=O)=O,/,2.0,0,/,/,
CSc1nc(NC(C)C)nc(N2CCOCC2)n1,-14,4.2,-10,5%,-5,
COc1cc(C(=O)Nc2nc3ccccc3[nH]2)cc(OC)c1OC,-20,-1.8,91,76%,-17,
COc1cc(CNCCc2ccc3c(c2)OCO3)ccc1O,/,1.5,2,/,/,
COc1ccc(CNC(=O)C(C)N2CCN(c3ccc(C(C)=O)cc3)CC2)cc1 (stereo not given),/,-1.5,4,/,/,
O=C(OCCOCCN=C1NS(=O)(=O)c2ccccc21)c1ccccc1Br,/,-1.0,-1,/,/,
CC1=C(C(=O)Nc2ccc(C(=O)NC(C)c3ccccc3)cc2)SCCO1 (stereo not given),/,2.5,3,/,/,
O=C(C1CCN(S(=O)(=O)c2cccs2)CC1)N1CCc2ccccc2C1,3,5.1,2,-6%,-4,
Cc1c(C(=O)N2CCCCC2)c(S(=O)(=O)N(C)Cc2ccccc2)c(C)n1C,/,-1.0,-5,/,/,
COc1ccccc1N1CCN(C(=O)c2cccc(N3C(=O)NC4CC3(C)Oc3ccccc34)c2)CC1 (stereo not given),-30,3.5,-8,0%,-2,
NS(=O)(=O)c1ccc(-n2nc(C(=O)O)cc2-c2ccc(Cl)cc2)cc1,/,2.6,-9,0%,11,
COC(=O)c1[nH]c2cccc(OC)c2c1NC(=O)CCN1CC(C)CC(C)C1 (stereo not given),-37,/,-6,-3%,5,
COc1cc(C(C)=O)ccc1O,/,-3.5,2,/,/,
Nc1nc(NC(=O)/C=C/c2ccccc2)nn1-c1ccccc1,-30,-2.5,-4,0%,-16,
CCN(CCn1cccn1)C(=O)CCc1nnc(CCCc2ccccc2)o1,/,2.2,-1,-2%,3,
Nc1nc(N2CCN(c3cccc(Cl)c3)CC2)n[nH]1,/,-3.5,-1,0%,0,
O=S(=O)(Nc1nc2ccccc2nc1NCC1CCCO1)c1cccs1 (stereo not given),-38,0.1,4,-5%,10,
# Next records follow.
SMILES,YopH inh,RecA splice inh,Mtb betalactam,Mtb H37Rv,Arbovirus inh,others
CN1N=C2c3ccccc3CCC2C1c1ccc(Cl)cc1 (stereo not given),/,/,4,-6%,/,
CC1CCCN(c2ccc3nncn3n2)C1 (stereo not given),/,-2.7,0,/,/,
Cc1cccc(C(=O)n2cnnc2N)c1,/,9.8,1,8%,-3,
CN(C)C(=O)c1ccc2c(c1)n(C)c(=O)n2C,-31,0.7,-6,-1%,5,
COc1ccc(-c2cnnc(N/N=C/c3ccc(O)c(OC)c3)n2)cc1,-44,-1.2,3,-2%,-18,
COc1ccccc1C(=O)NCCC(=O)NC(C)CCc1ccccc1 (stereo not given),/,4.2,-5,/,/,
Cc1ccc(S(=O)(=O)CCC(=O)OCC(=O)Nc2ccc(N3CCOCC3)cc2)cc1,/,-2.5,-1,/,/,
CCOC(=O)CNC(=O)CSc1ncnc2c1cnn2-c1ccc(OC)cc1,-9,0.9,99,15%,-3,
CC(C(=O)Nc1cccc(Br)c1)c1ccc([N+](=O)[O-])cc1 (stereo not given),-46,8.7,-4,16%,22,
COc1ccc(NC(=S)N2CCN(Cc3ccc(C)cc3)CC2)cc1,/,-1.0,-5,3%,1,
CCCS(=O)(=O)N1CCN=C1SCc1cccc2ccccc12,/,1.3,-4,/,-1,
COc1ccccc1/C=C/C1=NC(=C\N(C)C)/C(=O)O1,-4,-67,14,-1%,-7,
CC(C)c1csc(CN2CCC(CO)(Cc3ccccc3)CC2)n1,/,-0.3,-5,4%,2,
Cc1nnc2ccc(-c3ccc(NC(=O)c4ccco4)cc3)nn12,/,0.5,2,-10%,-3,
Cc1ccccc1C(=O)Nc1ccc2c(c1)nc(CCNC(=O)c1ccco1)n2C,/,-1.0,2,/,/,
Cc1ccc(Cn2cc(C(=O)NN)c(=O)c3ccc(F)cc32)cc1,/,20,6,/,/,
COC(=O)Cc1ccc(NC(=S)N2CCN(c3cc(Cl)ccc3C)CC2)cc1,/,6.3,-4,32%,6,
C#CCOc1ccc(C2C(C#N)=C(N)Oc3cc(O)ccc32)cc1 (stereo not given),/,-5.1,8,/,/,
CC(C)(C)NC(=O)COC(=O)CCC(=O)c1ccc(F)cc1,/,0.2,-5,-1%,10,
COc1cccc(NS(=O)(=O)c2c(C(=O)N3CCCCCC3)c(C)n(C)c2C)c1,/,-1.5,11,/,/,
COc1ccc(CNc2ncnc3ccccc23)cc1,/,0.4,4,/,/,
COc1ccc(CNC(=O)c2ccc(Cn3nc(C)c([N+](=O)[O-])c3C)o2)cc1,/,0.3,-1,-5%,6,
Cc1ccc(-c2cc(C(F)(F)F)n3nc(C(=O)N4CCCC4)cc3n2)cc1,5,/,/,/,-2,Arbovirus inh repeat=2
COc1cccc(OCC(O)CN(CCO)Cc2ccccc2)c1 (stereo not given),-24,0.2,-8,2%,3,
COc1ccc(OC)c(C(=O)COC(=O)c2c(OC)cccc2OC)c1,-16,-1.4,-6,-9%,1,
# Additional compounds follow.
SMILES,YopH inh,RecA splice inh,Mtb betalactam,Mtb H37Rv,Arbovirus inh,others
COC(=O)[C@@]1(Cc2ccc(F)cc2)[C@H]2c3cc(C(=O)N4CCCC4)n(CCc4ccc(O)c(O)c4)c3C[C@H]2CN1C(=O)c1ccccc1,-7,-2.3,1,/,-42,
CC(=O)Nc1ccc(Nc2ncnc3c2cnn3-c2cccc(C)c2)cc1,-1,-0.5,0,5%,-12,
O=C(Cn1nnc2ccccc2c1=O)N1CCCc2ccccc21,-3,0.3,1,-5%,5,
CCOc1cccc(/C=C/c2ccc3cccc(O)c3n2)c1O,/,1.5,99,/,/,
CCC1=Nc2ccc(Br)cc2C(c2ccccc2)N1CC(=O)OC (stereo not given),-56,2.1,-15,-6%,-11,
CCCN(C(=O)CSCC(=O)Nc1ccc(OC)cc1)c1c(N)n(Cc2ccccc2)c(=O)[nH]c1=O,/,-1.2,-13,/,/,
CCCN1CCc2[nH]c(=S)[nH]c(=O)c2C1,-11,-0.7,2,-4%,3,
CCOC(=O)c1ccc(OCCOc2ccccc2C)cc1,/,3.8,0,/,/,
Cc1nn(C)c(Nc2ccc(Br)cc2)c1Br,/,7.4,-2,6%,9,
CN(C(=O)C1CCCCC1)C1CCS(=O)(=O)C1 (stereo not given),/,-1.1,-4,/,/,
CCCCCCOc1ccc(C(CC(=O)NC)C(=O)O)cc1 (stereo not given),/,0.2,-1,-4%,4,
CCN(c1cccc2ccccc12)S(=O)(=O)c1ccc(Cl)nc1,/,6.7,0,4%,/,
Cc1ccc(N2C(=O)N(CC(=O)Nc3ccc(C)cc3C)C(=O)C2C)cc1 (stereo not given),/,-0.3,-7,-4%,0,
CCC(C)NC(=O)c1cccc(OCc2c(C)noc2C)c1 (stereo not given),/,0.9,6,2%,1,
CCOP(=O)(OCC)/C(C#N)=C/c1ccc(Br)cc1,/,2.2,-4,8%,/,
CC(=O)C1=C(C)N(CC2CC2)C(=O)N[C@H]1c1cccs1,-24,/,-8,-9%,6,
O=C(CC(SCCO)c1ccc([N+](=O)[O-])cc1)c1ccco1 (stereo not given),/,-3.1,100,/,/,
NC(c1ccccc1)c1ccncc1 (stereo not given),/,-0.4,6,/,/,
CCOC(=O)c1sc(NC(=S)NC(=O)CC(C)C)cc1C,-44,5.1,98,?,-2,
COCC(=O)Nc1ccc2c(c1)OCO2,/,0.3,0,-5%,5,
COc1ccc(Cn2nnnc2C(C(C)C)N(Cc2ccco2)Cc2cccs2)cc1 (stereo not given),-61,22,0,-3%,-39,
COCCN(C(=O)c1ccc(OC2CCN(S(=O)(=O)N(C)C)CC2)cc1)C(C)C,/,0.4,7,/,/,
O=C(CNS(=O)(=O)/C=C/c1ccccc1)OCC(=O)N1CCC(Cc2ccccc2)CC1,-17,4.1,-2,3%,0,
CCOC(=O)CCn1cc(F)c(=O)n(Cc2ccccc2)c1=O,-49,1.2,-4,5%,-1,Arbovirus inh repeat=1
